# PINK1 modulator – changes PINK1 expression | PINK1 immunofluorescence, high-content cytometry, 24 h | Potency, µM (titrated, usually from 76.6 µM), inactives show at the top dose activation (PINK1 increase), most hits filed as activators | hit rate 0.2% among 410,000; active = well fitted activation curve with a large enough effect; inconclusive = small, poorly fitted or top-dose-only effect; inactive = flat fitted curve, though single readings scatter; cell line not stated here;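 note: potency is the fitted concentration of half-maximal effect; % of control where 0% means no effect; nearly all actives have a fitted effect of over 65% in size; a mitochondrial uncoupler was the plate control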
#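 Readout is PINK1 immunofluorescence, quantified alongside mitochondrial, cell and nuclear markers by laser-scanning microplate cytometry. Cells from a stable line were exposed to compound titrations (5 concentrations) for 24 hours, with CCCP controls.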
# D2 potentiator – human D2 receptor positive allosteric modulation. P14416. DiscoveRx D2 beta-arrestin cells, luminescence, 90 min; 100% = 57 uM dopamine signal. potentiation, % (concentration not given with the values). hit rate 0.23% among 360,000; active = potentiation of 50% or more; inconclusive = 30% to 50%; inactive = 30% or less;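 note: compound concentration not given in the record; tested on top of an EC20 dose of dopamine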
# Target sequence (P14416 whole entry, looked up): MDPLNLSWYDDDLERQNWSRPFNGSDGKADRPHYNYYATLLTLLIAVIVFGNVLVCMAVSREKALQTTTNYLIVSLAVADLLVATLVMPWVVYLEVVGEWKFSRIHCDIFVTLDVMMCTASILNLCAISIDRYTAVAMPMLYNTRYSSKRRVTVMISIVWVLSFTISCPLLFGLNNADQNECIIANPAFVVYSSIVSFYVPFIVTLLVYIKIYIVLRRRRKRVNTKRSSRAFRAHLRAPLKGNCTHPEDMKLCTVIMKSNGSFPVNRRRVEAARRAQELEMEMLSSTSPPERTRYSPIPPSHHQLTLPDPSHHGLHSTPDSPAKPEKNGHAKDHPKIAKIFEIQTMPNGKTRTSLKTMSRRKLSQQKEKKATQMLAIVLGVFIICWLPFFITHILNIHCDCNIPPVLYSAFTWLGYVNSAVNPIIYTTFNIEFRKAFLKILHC
#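 PathHunter D2 cells, attached overnight at 37 deg C, received compound in DMSO plus dopamine at EC20 (50 nM final) for 90 min at 37 deg C. Beta-arrestin recruitment was read as luminescence after 1 h with detection reagent at ambient temperature.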
# D2 agonist – agonists of human D2 dopamine receptor (beta-arrestin); P14416; DiscoveRx PathHunter D2 beta-arrestin, luminescence, 90 min; 100% = 57 uM dopamine signal; activation, % (test concentration not listed); hit rate 0.084% among 360,000; in the data active = activation above about 40%; inconclusive = about 15% to 40%; inactive = below about 15%; note: compound concentration not given in the record; the text of the record calls up to 30% inactive
#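 Agonist mode: compounds alone added to overnight-plated D2 PathHunter cells for 90 min at 37 C, with 57 uM final dopamine (EC100) defining full response. Beta-arrestin recruitment detected by chemiluminescent reagent, read after 1 h at ambient temperature.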
# Six1-Eya2 inh – Six1/Eya2 interaction inhibition | activity change, % (concentration not given with the values) | AlphaScreen GST-Six1/His-Eya2 binding, biochemical; active compounds read low; control for the full effect not named in the record | Q15475+O00167 | AID 651725 | hit rate 0.56% among 360,000; in the data active = activity change below about -65%; inconclusive = about -30% to -65%; inactive = above about -30%; note: % is set by controls: 0 for no effect and ±100 for the full control effect
#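 GST-Six1 + His-Eya2 (5X stock: 250/500 nM); Tris pH 8.0, 300 mM NaCl, 0.05% BSA, 0.02% Tween 20; GSH donor/Ni acceptor beads; 1 h 37 °C dark; AlphaScreen readout.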
# TRPML1 blocker – human mucolipin-1 channel inhibition | Q9GZU1 | TRPML1-inducible cells, Ca2+ dye fluorescence, FDSS; active compounds read low; inhibition of EC80 agonist-evoked calcium signal | activity change, negative = inhibition, % (test concentration not listed) | hit rate 0.02% among 390,000; in the data active means activity change below about -50%; inconclusive means about -30% to -50%; inactive means above about -30%;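 note: stimulus is agonist 54-4 at its EC80 concentration; % is set by controls: 0 for no effect and ±100 for the full control effect; compound concentration not given in the record; the text of the record puts the active cut at -80%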
# Target sequence (Q9GZU1 whole entry, looked up): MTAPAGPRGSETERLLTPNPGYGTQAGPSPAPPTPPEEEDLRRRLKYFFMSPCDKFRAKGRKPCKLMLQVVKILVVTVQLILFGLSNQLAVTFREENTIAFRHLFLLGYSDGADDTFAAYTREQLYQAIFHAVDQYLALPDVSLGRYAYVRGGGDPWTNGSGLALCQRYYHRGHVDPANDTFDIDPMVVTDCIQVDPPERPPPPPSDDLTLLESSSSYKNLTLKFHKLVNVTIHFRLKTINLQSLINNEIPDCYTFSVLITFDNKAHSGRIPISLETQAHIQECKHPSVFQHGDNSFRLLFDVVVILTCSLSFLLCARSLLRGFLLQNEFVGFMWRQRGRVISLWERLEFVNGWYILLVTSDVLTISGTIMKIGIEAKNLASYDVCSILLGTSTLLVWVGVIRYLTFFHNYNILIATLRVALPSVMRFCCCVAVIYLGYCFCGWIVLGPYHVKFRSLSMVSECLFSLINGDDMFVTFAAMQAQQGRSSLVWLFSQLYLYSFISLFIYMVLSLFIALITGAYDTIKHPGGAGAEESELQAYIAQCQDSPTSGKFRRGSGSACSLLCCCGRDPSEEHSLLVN
#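 Calcium fluorescence in TRPML1-DL cells induced overnight with Tet: a 110 s read after compound pin addition, then a 110 s antagonist read after challenge with 54-4 at 4 uM final (EC80).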
# TRPML1 ag – activates the human TRPML1 channel | Q9GZU1 | TRPML1-expressing cells, Ca2+ dye fluorescence, FDSS; host cell line not named in the record; reference of the full effect not given here | activation, % (concentration not given with the values) | hit rate 0.12% among 410,000 | AID 624414; in the data active = activation above about 50%; inconclusive = about 30% to 50%; inactive = below about 30%; note: 0% is about no effect; the text of the record puts the active cut at 80%
#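 In this qHTS format, compounds were pin-transferred onto Ca8-dye-loaded TRPML1-DL cells induced with Tet overnight, and intracellular Ca2+ fluorescence was recorded kinetically for 110 s after a 10 s baseline. A subsequent 4uM final 54-4 (EC80) addition followed by a second 110 s read served as the antagonist phase.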
# Numbers without * were called inactive; ? = inconclusive; · = no result given; & = joins results of further samples; [ ] = dose if it differs, or a comment.
# Each structure is followed by: PINK1 modulator, D2 potentiator, D2 agonist, Six1-Eya2 inh, TRPML1 blocker, TRPML1 ag
CCOC(=O)c1ccc(N2CCN(c3cccc(OC)c3)CC2)c(NC(=O)Nc2ccc(OCC)cc2)c1
→ 0.5%, ·, ·, ·, 11, 0.6
O=C(c1ccco1)N1CCN(c2ccc([N+](=O)[O-])cc2Cl)CC1
→ 0.8%, -12, -2.2, -1, ·, ·
COc1ccc(C2NC(c3ccc(OC)cc3OC)C(C)C(=O)C2C)c(OC)c1 (stereo not given)
→ 0.3%, 1, -0.3, -2, -22, 1.4
CCN(CC)c1cc2c(cc1F)c(=O)c(S(=O)(=O)c1ccccc1)cn2C
→ -0.8%, ·, ·, ·, -8, -0.3
CC1CCc2cc(F)ccc2N1C(=O)c1cc2nc(-c3ccco3)cc(C(F)(F)F)n2n1 (stereo not given)
→ 2.3%, 15, -4.6, -2, 7, 0.5
Cc1cc(C)n2ncc(C(=O)Nc3cccc(O)c3)c2n1
→ 20%, 2, 2.6, -22, -5, -0.1
CC(C(=O)Nc1nc(-c2ccc(F)c(F)c2)cs1)N1C(=O)C2CC=CCC2C1=O (stereo not given)
→ 1.9%, ?, ?, -9, 6, -1.5
CCOC(=O)c1c(C)n(C)c2ccc(OC)c(NC(=O)CN3CCC4(CC3)OCCO4)c12
→ -0.7%, -8, -2.6, 6, -15, 0.3
O=C(NCC(c1ccco1)N1CCCC1)c1ccc(Cl)c(S(=O)(=O)N2CCc3ccccc32)c1 (stereo not given)
→ 3.6%, -30, 3.3, -11, -14, 0.5
COc1ccc(-c2cc(C(=O)O)c3sc(N4CCCCC4)nc3n2)cc1OC
→ 6.3%, -26, -1.7, -17, -14, 1.5
O=C(Nc1ccc(-n2nncc2-c2ccco2)cc1)c1ccc(F)cc1
→ -0.4%[38.3 µM], -13, 0.9, -2, -6, -0.1
CCCCc1nnc(NC(=O)c2ccc3[nH]c(=O)c(=O)[nH]c3c2)s1
→ -0.8%, -4, -3.2, -13, -15, -1.2
COc1ccc(CCNC(=O)COC(=O)c2ncc(Cl)c(Cl)c2Cl)cc1OC
→ -2.4%, 14, 3.0, -2, 4, -0.2
CC(Sc1ccc(S(=O)(=O)N(C)C)cn1)C(=O)NC1CCCC1 (stereo not given)
→ 0.5%, -2, 3.1, 1, 8, 0.0
COc1ccccc1NC(=O)CSc1nnnn1-c1ccccc1OC
→ 4.7%, 2, -1.4, 0, 17, 0.9
CS(=O)(=O)N1CCC(NC(=O)Nc2ccc(OC(F)(F)F)cc2)CC1
→ 1.0%, -14, -4.9, 23, -15, 0.9
CCN(CC)S(=O)(=O)c1ccc(C(C)NC(=O)C2CCCN2C(=O)c2cccs2)cc1 (stereo not given)
→ 1.1%, -2, -3.1, 4, -12, -0.3
CCN(CC)C(=O)c1ccccc1NC(=O)CN1C(=O)c2ccccc2S1(=O)=O
→ -2.2%, -11, -2.8, 9, -8, 0.6
COc1cccc(CNc2ncc(-c3ccccc3)n2C)c1
→ 2.8%, -30, -2.0, -13, -6, -0.5
Cc1ccc(C)c(NC(=O)CN(C)C(=O)c2ccc(S(=O)(=O)N3CCCCCC3)cc2)c1
→ -1.7%, -4, -2.6, 4, 2, 0.2
O=C(NCC1CCCO1)c1ccc(-c2ccccc2Cl)o1 (stereo not given)
→ 1.0%, -23, -0.2, -5, -6, -0.5
COc1ccc(CNCCCSc2ncccn2)c(OC)c1
→ -0.5%, -48, -4.4, -3, 15, 0.0
COc1cnc(NS(=O)(=O)c2ccc(N)cc2)nc1
→ 0.0%, -4, -7.2, 7, 10, -0.5
CC(C)(C)S(=O)(=O)/C(C#N)=C/c1cccn1S(=O)(=O)c1ccccc1
→ 2.7%, 1, -2.6, -12, -3, 0.0
COc1ccc(C(=O)N2CCN(S(=O)(=O)c3ccccc3)CC2)c(OC)c1
→ ?, 8, 2.3, 5, -10, 0.4
O=C1C(C2=NC(c3ccccn3)C3C(=O)N(c4ccc(Cl)cc4Cl)C(=O)C23)=C(O)c2ccccc21 (stereo not given)
→ -1.2%, -3, -6.7, 0, ·, ·
Cc1onc(-c2c(Cl)cccc2Cl)c1C(=O)Nc1ccc(N2CCOCC2)cc1
→ 0.8%, 22, -0.2, 2, 1, -0.4
Cc1ccccc1NC(=O)/C(C#N)=C\c1cccnc1
→ 13%[38.3 µM], -10, 1.0, 2, -2, 1.2
Cc1ccc(N2CC(C(=O)N3CCC4(CC3)CC(=O)c3ccccc3O4)CC2=O)cc1C (stereo not given)
→ 4.3%, 11, -1.2, 8, -8, 1.6
O=C(Cn1c(=O)oc2ccccc21)Nc1cccc(Cl)c1
→ 13%, -1, 2.6, 0, 0, 3.1
CCNC(=S)NNC(=O)c1nn(C)c(C)c1Cl
→ -1.6%, -25, -3.6, -5, 12, 2.3
O=S(=O)(Cc1ccccc1)NCCc1ccc(F)cc1
→ 0.2%, -4, -1.4, 8, -9, -0.2
O=c1cc(C(F)(F)F)nc(SCc2cccnc2)[nH]1
→ 0.1%, 4, 12, 2, 17, 2.5
O=C(CN1C(=O)NC(Cc2c[nH]c3ccccc23)C1=O)Nc1ccccc1C(F)(F)F (stereo not given)
→ -0.9%, -9, -1.1, 2, -4, 0.4
CC1(C)Cc2c(C#N)c(SCC(=O)c3ccccc3)nc(N3CCOCC3)c2CS1
→ 1.0%, 7, 1.0, -9, 0, 0.1
CCOC(=O)c1c(-c2ccncc2)csc1N
→ 3.8%, -22, 0.1, 0, -6, 0.9
COc1ccc(Cl)cc1C(=O)NNC(=O)CCNS(=O)(=O)c1ccccc1
→ 3.5%, -8, 2.1, 0, -12, -1.1
CCOc1ccc(NC(=S)N2C3CCCC2CC(NC(=O)C2CC2)C3)cc1 (stereo not given)
→ 4.8%, -1, -2.6, 0, 2, -0.5
Cn1c2ccccc2c2c(C(=O)N3CCN(c4ccc(F)cc4)CC3)cn(C3CCCCC3)c(=O)c21
→ 0.6%, ·, ·, ·, 16, 4.0
O=C(NCCO)c1ccc(Cl)c(Cl)c1
→ -0.9%, 5, -3.3, 4, 29, -0.2
Cc1cc(C)n(CCn2nc(C)cc2C)n1
→ -3.4%, -10, -0.8, -1, -15, 0.6
COc1ccc([N+](=O)[O-])cc1NC(=O)C(C)NNC(=O)c1cccc([N+](=O)[O-])c1 (stereo not given)
→ -0.1%, -20, -4.0, ?, 9, 2.5
CCCOc1ccccc1C(=O)N1CCCCC1CCN1CCOCC1 (stereo not given)
→ -0.4%, ·, ·, ·, 3, -0.2
COCCNC(=O)c1nc2c(nnn2Cc2cc(C)ccc2C)c(=O)[nH]1
→ -1.4%[38.3 µM], -4, -2.4, -1, 12, 0.4
COc1ccc(C(=O)Nc2cc(C(=O)NCCc3ccccc3)ccc2Cl)cc1
→ ·, -10, 3.3, 1, 4, 2.3
CCOc1ccc(N(CC)C(=O)c2cc3c(s2)-c2ccccc2OC3)cc1
→ 2.6%, ·, ·, ·, -13, 2.3
COc1cc(C(=O)N2CCC(c3ccncc3)CC2)cc(OC)c1OC
→ 1.2%, ·, ·, ·, -3, -0.5
CC1CN(C(=O)c2ccc(NS(=O)(=O)c3ccc(C(C)(C)C)cc3)cc2)CC(C)O1 (stereo not given)
→ 0.8%, -2, -3.0, 5, -17, 13
Cc1cc(C)nc(N2C(=O)CC(C(C)c3ccccc3)C2=O)n1 (stereo not given)
→ 0.5%, -14, -4.8, 6, 17, 0.0
O=C(NCc1ccc(Cl)cc1Cl)C1CC(=O)N(Cc2ccccc2)C1 (stereo not given)
→ 0.9%, -4, -1.6, 4, ?, 0.6
C[C@@H](CSc1ccc(Br)cc1)CN1CC[C@H](O)CCC1=O
→ 0.4%, -8, -4.2, 3, 19, -0.3&-0.5
CC[C@H](C)[C@H](NC(=O)OCc1ccccc1)C(=O)OCC(=O)N(C)CC(=O)Nc1ccccc1Cl
→ 0.4%, -10, -2.4, 1, -4, -0.7
COc1ccc(C2CC(c3cccs3)=NN2C(=O)CCC(=O)O)cc1 (stereo not given)
→ -0.4%, 5, -5.2, 1, 17, -0.3
COc1ccc(C(=O)/C=C2\NCC3c4ccccc4CCN3C2=O)cc1 (stereo not given)
→ -1.1%, -10, -0.8, 4, 16, 0.1
CCOC(=O)N1C2=NC(C(=O)OC)=C(C(=O)OC)[C@@H]3Nc4ccccc4[C@]23C[C@H]1C(=O)OC
→ 1.3%, -2, 0.9, 3, -13, -0.1
Cc1[nH]n(-c2ccccc2)c(=O)c1C1(C(F)(F)F)C(=O)N(c2ccccc2)C2=C1C(=O)CC(C)(C)C2 (stereo not given)
→ 10%[38.3 µM], -6, -4.0, -13, 9, 3.2
O=C1NC[C@H](Cc2ccc(O)cc2)N(C[C@H]2CCCN2C[C@H](Cc2ccc(O)cc2)N2C[C@H](Cc3ccc(O)cc3)N(CCc3ccccc3)C(=O)C2=O)C1=O
→ 0.4%, -7, -3.3, -18, 11, 0.1
CCn1cc(/C=C(\NC(=O)c2ccc(OC)c(OC)c2)C(=O)NCCCN2CCOCC2)c2ccccc21
→ 1.9%, -10, -1.7, -30, -1, 0.2
CCOCCOc1nc2c(c(=O)n(C)c(=O)n2C)n1Cc1ccc(C)cc1
→ 0.6%, -3, -4.5, 7, -8, -1.0
Cc1ccc(-c2noc(CN3CCN(C(c4ccccc4)c4ccccc4)CC3)n2)cc1
→ 0.7%, 1, -4.2, -2, -4, 1.5

# Whole records from above. Order of screens: PINK1 modulator, D2 potentiator, D2 agonist, Six1-Eya2 inh, TRPML1 blocker, TRPML1 ag
# CCOc1ccc(N(CC)C(=O)c2cc3c(s2)-c2ccccc2OC3)cc1 is listed with 2.6%, ·, ·, ·, -13, 2.3
# O=C(NCc1ccc(Cl)cc1Cl)C1CC(=O)N(Cc2ccccc2)C1 (stereo not given) is listed with 0.9%, -4, -1.6, 4, ?, 0.6
# CCN(CC)S(=O)(=O)c1ccc(C(C)NC(=O)C2CCCN2C(=O)c2cccs2)cc1 (stereo not given) is listed with 1.1%, -2, -3.1, 4, -12, -0.3

# Continued.
# Each structure is followed by: PINK1 modulator, D2 potentiator, D2 agonist, Six1-Eya2 inh, TRPML1 blocker, TRPML1 ag
CCOc1ccccc1C(=O)Nc1ccc2c(c1)C(=O)NC2=O
→ 4.7%, 6, 2.4, 2, 30, -0.8
Cc1cc(Nc2ccc(C)c(Br)c2)n2nc(C)nc2n1
→ 1.6%, 3, 2.5, -1, 27, 0.7
O=C(COC(=O)c1ccc2c(c1)C(=O)N(Cc1ccco1)C2=O)NCC(F)(F)F
→ -2.1%, 2, -0.3, 5, 12, -0.5
Cc1ccc(C(=O)Nc2ccc3c(c2)CCC3)cc1S(=O)(=O)N1CCOCC1
→ 1.6%, -9, -2.2, -7, -2, -0.4
CC(NC(=O)NC1CCCCC1)c1ccccc1 (stereo not given)
→ 2.8%, -2, -0.3, 3, 18, -0.1
COc1ccc(CCNC(=O)c2cc3c(-c4ccc(OC)c(OC)c4)nn(C)c3s2)cc1OC
→ 1.1%, ·, ·, ·, -21, -0.4
CCCCN(CCCNC(=O)Cn1ncc2ccsc2c1=O)Cc1ccccc1
→ 1.2%, -5, -2.1, 2, -6, -0.3
